AF4-AF9 inh: MLL-AF4/AF9 protein interaction inhibition; P42568; inhibition, % at 10 µM; 0.47% of 350,000 active; AlphaScreen, biotin-AF4 peptide binding to FLAG-AF9;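 active = every replicate reaching a set inhibition limit, whatever the replicate mean, cut at about 25% in these data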;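 also: 0% = plate neutral control median and 100% = total signal loss; the record names both 10 and 1 µM as test concentration; the first replicate is given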
Target sequence (P42568 whole entry, looked up): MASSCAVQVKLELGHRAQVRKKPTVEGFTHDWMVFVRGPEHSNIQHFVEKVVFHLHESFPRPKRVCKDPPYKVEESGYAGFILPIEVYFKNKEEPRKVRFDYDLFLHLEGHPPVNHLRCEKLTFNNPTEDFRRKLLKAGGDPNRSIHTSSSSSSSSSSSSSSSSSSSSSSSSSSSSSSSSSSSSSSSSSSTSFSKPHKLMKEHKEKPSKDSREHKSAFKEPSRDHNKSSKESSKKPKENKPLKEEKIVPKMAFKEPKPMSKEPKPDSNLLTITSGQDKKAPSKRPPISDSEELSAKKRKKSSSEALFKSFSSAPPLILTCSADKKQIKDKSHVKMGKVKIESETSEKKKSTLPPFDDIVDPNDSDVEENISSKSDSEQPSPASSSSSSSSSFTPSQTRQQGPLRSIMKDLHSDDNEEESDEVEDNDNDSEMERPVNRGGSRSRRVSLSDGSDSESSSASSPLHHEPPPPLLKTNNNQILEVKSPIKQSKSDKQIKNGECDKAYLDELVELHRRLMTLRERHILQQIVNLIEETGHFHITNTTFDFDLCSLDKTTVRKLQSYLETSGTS
Ecoli rRNA inh: inhibitors of bacterial rRNA selective over humanized ribosomes | GFP signal change (wild-type ribosome), % (test concentration not listed) | E. coli WT GFP vs humanized-ribosome RFP mutants, fluorescence, 24 h; stronger effect = lower value; DMSO median 0, no signal -100 | 1.6% of 350,000 active;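 active = significant combined selectivity score with lowered wild-type GFP, culture density cut under 30%, mutant RFP and density less affected; inactive = any of these conditions unmet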; also: one replicate is shown; some compounds called inactive have numbers as strong as hits
Ecoli rRNA inh OD600: further read-out of Ecoli rRNA inh, marked with its call; OD600 change, %; measured here: OD600 growth;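 optical density of the mix in the first replicate; 0 = DMSO median and -100 = no signal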
Ecoli rRNA inh RFP: recorded beside Ecoli rRNA inh, whose call it bears; RFP signal change, %; measured here: RFP humanized mutant strains;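 first replicate; 0 = DMSO median and -100 = no signal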
* marks the source's active call; other numbers are inactive results; & = joins results of further samples. The list is partial, so the mix of outcomes need not match the whole.

SMILES | AF4-AF9 inh | Ecoli rRNA inh | Ecoli rRNA inh OD600 | Ecoli rRNA inh RFP
CCc1ccc([C@H]2[C@@H]3C(=O)C[C@@H]4C(=O)N(C)C(=O)[C@@H]4[C@@H]3CN2S(=O)(=O)c2ccc(C)cc2)cc1 | -4.0 | 4 | -16 | 4.2
CN1C(=O)c2cc(NC(=O)C3CCOCC3)ccc2OC[C@H]2O[C@H](CC(=O)NCC3CC3)CC[C@@H]21 | -1.4 | 3 | 14 | -5.3
C[C@H](CO)N1C[C@H](C)[C@@H](CN(C)C(=O)CC2CC2)Oc2cc(C#CCC3CCCC3)ccc2S1(=O)=O | 1.0 | -5 | -9 | 3.9
Cc1ccc(S(=O)(=O)Nc2ccc3c(c2)C(=O)N([C@@H](C)CO)C[C@H](C)[C@@H](CN(C)Cc2ccc4c(c2)OCO4)O3)cc1 | 1.4 | 2 | -6 | 0.1
COc1ccc(CNC(=O)C[C@H]2CC[C@@H]3[C@@H](COc4ccc(NC(=O)C(C)C)cc4C(=O)N3C)O2)cc1 | -2.1 | -1 | 0 | -2.1
COc1ccccc1CN1C[C@@H](C)[C@H](OC)CN(C)C(=O)c2ccc(NC(C)=O)cc2OC[C@H]1C | -1.2 | 2 | 5 | 0.4
O=S(=O)(c1ccccc1F)N1C[C@@H]2N[C@H](C1)C2c1ccc(-c2ccncc2)cc1 (some centres not stated) | -5.7 | 4 | 7 | 1.1
C[C@@H]1CN([C@@H](C)CO)S(=O)(=O)c2ccc(C3=CCCCC3)cc2O[C@H]1CN(C)S(=O)(=O)c1cn(C)cn1 | 6.2 | -2 | -15 | 1.7
COC(=O)C[C@@H]1CC[C@H]2[C@H](COc3ccc(NC(=O)Nc4ccc(C#N)cc4)cc3C(=O)N2C)O1 | -13 | -8 | -24 | -3.2
COCC(=O)Nc1ccc2c(c1)C(=O)N(C)C[C@H](OC)[C@@H](C)CN(CC1CC1)[C@H](C)CO2 | -1.2 | 1 | 1 | -1.7
O=C(C1CCCC1)N1C[C@@H]2[C@H](c3ccccc31)[C@@H](CO)N2C(=O)c1ccccc1F | -3.0 | -2 | -1 | 1.9
COCC#Cc1cnc2c(c1)C(=O)N([C@@H](C)CO)C[C@@H](C)[C@H](CN(C)C(=O)CCN1CCCCC1)O2 | -3.5 | 4 | 7 | -0.9
CN(C)CC#Cc1ccc([C@@H]2[C@H]3CN(CC4CC4)CCCCN3[C@H]2CO)cc1 | 26* | 13 | 12 | -4.5
CCC(=O)N(C)C[C@@H]1Oc2ncc(C#Cc3ccncc3)cc2C(=O)N([C@@H](C)CO)C[C@@H]1C | -14 | 7 | 5 | -0.3
COc1ccccc1-c1cnc2c(c1)C(=O)N([C@H](C)CO)C[C@H](C)[C@H](CN(C)CC1CCCC1)O2 | 0.3 | 0 | 4 | -5.6
CC(=O)N(C)C[C@H]1Oc2ncc(-c3ccccc3F)cc2C(=O)N([C@H](C)CO)C[C@@H]1C | -1.8 | 0 | 12 | -1.1
CO[C@@H]1CN(C)C(=O)c2cccc(C#N)c2OC[C@H]2O[C@@H](CC[C@H]2OC)CCN(C)C(=O)[C@H]1C | -3.5 | 2 | 9 | -3.0
C[C@@H]1CN([C@@H](C)CO)C(=O)c2c(c3ccccc3n2C)-c2ccccc2CO[C@@H]1CN(C)C(=O)Nc1cccc(C(F)(F)F)c1 | -6.7 | 1 | 3 | 0.1
C/C=C/c1ccc([C@H]2[C@@H](CO)N(C(C)=O)[C@@H]2CN(CC)C(=O)CN(C)C)cc1 | -1.1 | 5 | 8 | -5.7
O=C(C1CCCC1)N1C[C@H]2[C@@H](c3ccccc31)[C@@H](CO)N2C(=O)Nc1cccc(F)c1 | -1.9 | -3 | -10 | 3.4

Sorted by heavy-atom count (falling): 3 of the compounds above
SMILES | AF4-AF9 inh | Ecoli rRNA inh | Ecoli rRNA inh OD600 | Ecoli rRNA inh RFP
C[C@@H]1CN([C@@H](C)CO)S(=O)(=O)c2ccc(C3=CCCCC3)cc2O[C@H]1CN(C)S(=O)(=O)c1cn(C)cn1 | 6.2 | -2 | -15 | 1.7
CN1C(=O)c2cc(NC(=O)C3CCOCC3)ccc2OC[C@H]2O[C@H](CC(=O)NCC3CC3)CC[C@@H]21 | -1.4 | 3 | 14 | -5.3
O=C(C1CCCC1)N1C[C@H]2[C@@H](c3ccccc31)[C@@H](CO)N2C(=O)Nc1cccc(F)c1 | -1.9 | -3 | -10 | 3.4

The results go on.
SMILES | AF4-AF9 inh | Ecoli rRNA inh | Ecoli rRNA inh OD600 | Ecoli rRNA inh RFP
Cc1cccc(S(=O)(=O)N[C@H]2CC[C@@H](CCNS(=O)(=O)c3ccccc3F)O[C@H]2CO)c1 | -0.5 | 1 | 6 | 0.4
C[C@@H]1CN([C@@H](C)CO)C(=O)Cc2cc(NC(=O)Nc3cccc4ccccc34)ccc2O[C@@H]1CN(C)C | 1.0 | 3 | 1 | 1.5
O=C(C[C@H]1C[C@H]2c3cc(NC(=O)NC4CCCC4)ccc3O[C@H]2[C@@H](CO)O1)NCc1ccccn1 | -7.2 | 0 | -3 | 1.0
C[C@H]1CN([C@@H](C)CO)C(=O)Cc2cc(NC(=O)Cn3cnnn3)ccc2O[C@@H]1CN(C)Cc1ccc(C(=O)O)cc1 | -2.3 | 6 | 10 | -1.1
Cc1noc(C)c1NC(=O)N(C)C[C@@H]1OCCCC[C@@H](C)Oc2ccc(NC(=O)C3CCCCC3)cc2C(=O)N([C@H](C)CO)C[C@H]1C | -2.7 | -2 | 2 | -4.7
CC(=O)N1CCCCN2[C@H](CO)[C@@H](c3ccc(Br)cc3)[C@@H]2C1 | -1.7 | 3 | 0 | -5.9
O=C(Cc1ccccc1)N1CC2(C1)[C@H](c1ccccc1)[C@H](CO)N2C(=O)Cc1ccccc1 | 0.5 | 1 | -5 | -0.8
CN(C)CC#Cc1ccc([C@H]2[C@H]3CN(C(=O)CN(C)C)CCCCN3[C@H]2CO)cc1 | -0.5 | 1 | 13 | -2.1
COCC(=O)N1C[C@H](C)[C@H](OC)CN(C)C(=O)c2ccc(NC(=O)c3cnccn3)cc2OC[C@H]1C | -3.7 | 3 | 4 | 1.5
CCCNC(=O)Nc1ccc2c(c1)C(=O)N(C)C[C@@H](OC)[C@H](C)CN(S(C)(=O)=O)[C@@H](C)CO2 | -7.5 | 2 | 1 | -1.9
CCCC(=O)N1CC2(CN(C(=O)Nc3cccc(F)c3)C2)c2c(n(C)c3cc(OC)ccc23)[C@H]1CO | -1.7 | -4 | 7 | 0.3
COc1cccc(NC(=O)N(C)C[C@H]2Oc3ncc(C4=CCCCC4)cc3C(=O)N([C@@H](C)CO)C[C@@H]2C)c1 | 2.2 | 0 | -7 | -1.3
CO[C@@H]1CN(C)C(=O)c2ccc(NC(C)=O)cc2OC[C@H](C)N(Cc2ccc(F)cc2)C[C@@H]1C | -2.4 | -1 | 1 | -5.5
C[C@H]1CN([C@@H](C)CO)C(=O)c2cc(C#CCN(C)C)cnc2O[C@@H]1CN(C)Cc1ccc2c(c1)OCO2 | 7.8 | 3 | 4 | -2.5
C[C@@H]1CN([C@@H](C)CO)C(=O)Cc2cc(NC(=O)Cc3cn(C)c4ccccc34)ccc2O[C@@H]1CN(C)Cc1ccc(C(F)(F)F)cc1 | -5.4 | -1 | 2 | 0.3
CN1CCN(c2ncnc3c2ncn3[C@H]2CN(Cc3ccc(Cl)cc3)C[C@@H](CO)O2)CC1 | 2.8 | -6 | -9 | -0.4
CN(C)C(=O)c1cccc(-c2ccc3c(c2)[C@@H]2[C@@H](CCN2S(=O)(=O)c2ccccc2)[C@@H](CO)N3)c1 | -1.7 | -17 | -38 | 14
CCCNC(=O)N1[C@H](CO)[C@H](c2ccccc2)[C@@H]1CNC(=O)C1CCCCC1 | -4.4 | 0 | 2 | -0.4
Cc1ccc(Cc2c(C(C)(C)C)nc3cc(C)c(Br)c(C)n23)cc1 | -0.3 | 4 | 0 | -4.0
COc1ccc(NC(=O)N(C)C[C@@H]2Oc3ccc(NS(C)(=O)=O)cc3C(=O)N([C@@H](C)CO)C[C@@H]2C)cc1 | -2.9 | 0 | 5 | 1.0

Looked up one by one from the list above:
SMILES | AF4-AF9 inh | Ecoli rRNA inh | Ecoli rRNA inh OD600 | Ecoli rRNA inh RFP
Cc1ccc(Cc2c(C(C)(C)C)nc3cc(C)c(Br)c(C)n23)cc1 | -0.3 | 4 | 0 | -4.0
CC(=O)N1CCCCN2[C@H](CO)[C@@H](c3ccc(Br)cc3)[C@@H]2C1 | -1.7 | 3 | 0 | -5.9
C[C@H]1CN([C@@H](C)CO)C(=O)c2cc(C#CCN(C)C)cnc2O[C@@H]1CN(C)Cc1ccc2c(c1)OCO2 | 7.8 | 3 | 4 | -2.5
CCCNC(=O)N1[C@H](CO)[C@H](c2ccccc2)[C@@H]1CNC(=O)C1CCCCC1 | -4.4 | 0 | 2 | -0.4
COCC(=O)N1C[C@H](C)[C@H](OC)CN(C)C(=O)c2ccc(NC(=O)c3cnccn3)cc2OC[C@H]1C | -3.7 | 3 | 4 | 1.5
CCCC(=O)N1CC2(CN(C(=O)Nc3cccc(F)c3)C2)c2c(n(C)c3cc(OC)ccc23)[C@H]1CO | -1.7 | -4 | 7 | 0.3

Going on with the list:
SMILES | AF4-AF9 inh | Ecoli rRNA inh | Ecoli rRNA inh OD600 | Ecoli rRNA inh RFP
CCc1nc2ccc(C(=O)NCCC(C)C)cn2c1N(CCN(C)C)CC1CC1 | 0.7 | 1 | 8 | -0.5
CO[C@@H]1CN(C)C(=O)c2cc(NC(=O)c3ccc(-c4ccccc4)cc3)ccc2OC[C@@H](C)NC[C@@H]1C | 5.6 | -7 | -7 | 21
O=C(Nc1cc(F)ccc1F)N1CCCCN2[C@H](C1)[C@H](c1ccc(-c3ccncc3)cc1)[C@@H]2CO | -1.0 | -6 | 8 | -2.2
CN1CCN(C(=O)C[C@H]2CC[C@H]3[C@@H](COC[C@H](O)CN3Cc3ccc4c(c3)OCO4)O2)CC1 | 1.1 | -1 | 5 | 0.4
CC1=C(C(=O)N(C(C)C)C(C)C)CC(CC(=O)NCCCCc2ccccc2)C(=O)N1CCC1=CCCCC1 (configuration not stated) | -7.8 | -7 | -6 | 2.5
C[C@@H]1CN([C@@H](C)CO)S(=O)(=O)c2ccc(-c3cncnc3)cc2O[C@@H]1CN(C)Cc1ccncc1 | -0.6 | 2 | 1 | -1.9
C[C@H]1CCCCO[C@@H](CN(C)CC2CCCCC2)[C@@H](C)CN([C@@H](C)CO)C(=O)c2cc(NS(=O)(=O)c3cccs3)ccc2O1 | 16 | 0 | -2 | 0.9
CN1C(=O)c2cc(NC(=O)C3CCCC3)ccc2OC[C@H]2O[C@@H](CC(=O)NCc3ccccc3F)CC[C@@H]21 | -2.9 | -3 | -11 | -2.1
C[C@@H]1CN([C@H](C)CO)S(=O)(=O)c2ccc(-c3cccc(C(=O)N(C)C)c3)cc2O[C@@H]1CN(C)C | 12 | 0 | 7 | -3.0
C[C@@H]1CN([C@@H](C)CO)C(=O)c2cc(N(C)C)ccc2O[C@H]1CN(C)S(C)(=O)=O | -3.7 | -1 | 2 | -0.4
CC(=O)N1N=C(c2ccc(Br)cc2)CC1c1ccc(Br)cc1 (configuration not stated) | 1.9 | -7 | -40 | -1.8
C[C@@H]1CN([C@H](C)CO)C(=O)c2cccc(NC(=O)CCCCCC(=O)Nc3ccccc3N)c2O[C@@H]1CN(C)S(=O)(=O)c1cccs1 | -4.3 | 2 | -2 | -3.4
Cc1ccc(S(=O)(=O)N(C)C[C@H]2OCCCC[C@H](C)Oc3ccc(NC(=O)Nc4ccccc4)cc3C(=O)N([C@H](C)CO)C[C@H]2C)cc1 | -0.7 | -3 | -2 | -5.1
COc1ccccc1-c1ccc([C@@H]2C[C@H]3[C@H](CON3C)CN2S(=O)(=O)c2cc(Cl)cc(Cl)c2)cc1 | 2.4 | 7 | 15 | -4.6
CCC(=O)N1C[C@@H](O)COC[C@@H]2O[C@H](CC(=O)NCc3ccc(Oc4ccccc4)cc3)CC[C@H]21 | -1.7 | -1 | -4 | 0.0
CNC[C@H]1Oc2ccc(NC(=O)NC3CCCCC3)cc2C(=O)N([C@H](C)CO)C[C@@H]1C | -2.8 | 5 | 5 | -0.1
CS(=O)(=O)c1ccc(-c2cnc3c(NC=O)cc(-c4ccsc4)cn23)cc1 | -4.2 | 4 | 9 | 2.3
C[C@@H]1CN([C@H](C)CO)C(=O)c2cc(NS(=O)(=O)c3cn(C)cn3)ccc2O[C@@H](C)CCCCO[C@@H]1CN(C)S(=O)(=O)c1ccccc1 | -1.1 | 0 | 0 | -0.2
CC(N)c1csc(Nc2nccc(C(F)(F)F)n2)n1 (configuration not stated) | -0.2 | 7 | 7 | 0.3
O=C(Nc1ccc2c(c1)OCCO2)C(C1CC1)N1CCN(C/C=C/c2ccccc2)CC1 (configuration not stated) | 4.4 | 6 | 2 | -3.1
COc1ccccc1-c1cnc2c(c1)C(=O)N([C@@H](C)CO)C[C@H](C)[C@H](CN(C)CC1CCOCC1)O2 | -4.6 | -3 | 7 | -3.8
CN(C)CC(=O)N[C@@H]1C=C[C@@H](CC(=O)NCCN2CCCCC2)O[C@@H]1CO | -0.3&0.2 | 2&12 | 11&9 | -3.4&1.3
COc1ccc(C#Cc2ccc([C@@H]3[C@H]4CN(C(=O)c5ccc(F)cc5)CC(=O)N4[C@H]3CO)cc2)cc1 | -2.7 | 3 | 11 | -1.3
CN(C)CC(=O)N[C@@H]1CC[C@H](CCn2cc(C3CCCCC3)nn2)O[C@H]1CO | -1.9 | 1 | -12 | 1.8

AF4-AF9 inh, entries above that show a hit.
SMILES | AF4-AF9 inh | Ecoli rRNA inh | Ecoli rRNA inh OD600 | Ecoli rRNA inh RFP
CN(C)CC#Cc1ccc([C@@H]2[C@H]3CN(CC4CC4)CCCCN3[C@H]2CO)cc1 | 26* | 13 | 12 | -4.5
